Screening results (PubChem BioAssay)
Beta2AR agonist: human beta-2 adrenergic receptor agonism by FAP; P07550; Am2.2-beta2AR cells, FAP receptor internalization, flow cytometry; reference of the scale not given here; response, % (no concentration beside the values); 340,000 tested, 0.43% active; AID 504454;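 active means response above a set limit, near 3 SD of response in nonfluorescent compounds, cut at about 42% in these data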;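 further: stock transfer was 100 nL into about 11 µL; a reference agonist was the positive control; negative values mostly stem from fluorescent compounds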
Target sequence (P07550 whole entry, looked up): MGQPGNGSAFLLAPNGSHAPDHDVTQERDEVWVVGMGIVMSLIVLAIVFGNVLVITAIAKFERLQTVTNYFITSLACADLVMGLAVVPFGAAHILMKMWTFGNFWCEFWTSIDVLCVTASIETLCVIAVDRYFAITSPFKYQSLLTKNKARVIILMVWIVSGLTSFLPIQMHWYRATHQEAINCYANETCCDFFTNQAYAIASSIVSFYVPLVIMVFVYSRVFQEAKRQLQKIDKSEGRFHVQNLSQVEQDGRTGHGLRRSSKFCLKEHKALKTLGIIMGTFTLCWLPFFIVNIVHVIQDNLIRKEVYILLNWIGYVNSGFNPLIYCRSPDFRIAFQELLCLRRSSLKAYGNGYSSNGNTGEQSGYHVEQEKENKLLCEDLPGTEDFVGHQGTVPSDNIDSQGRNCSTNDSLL
UCH37 DUB inh: blocks the human deubiquitinase UCH37 | Q9Y5K5 | purified proteasome/UCH37, Ub-AMC cleavage fluorescence | inhibition, % (concentration not given with the values) | 330,000 tested, 0.33% active;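 active means mean of two replicates above 20%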;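 further: 0% = compound-free wells with enzyme and 100% = wells lacking proteasome; stock transfer was 100 nL into about 20 µL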
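Assay system: Proteasome-bound UCH37. Buffer or medium: pH 7.4 Tris-HCl (50 mM) with ovalbumin, ATP-MgCl2, DTT. Incubation: 30 min preincubation with enzyme, 25 min cleavage at room temperature. Measured by: fluorescence, ex 355 nm, em 460 nm. Read-out basis: percent inhibition. Control set: wells without proteasome as full block, compound-free enzyme plus substrate as uninhibited.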
ALR H2O2 inh: human ALR oxidase inhibition via reduced H2O2 | P55789 | purified ALR, DTT oxidation, H2O2 HRP-luminol luminescence | inhibition, % (concentration not given with the values) | 290,000 tested, 3.8% active | AID 485317;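 active means mean and each replicate at 75% or more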;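 further: stock transfer was 7.5 nL into about 7.5 µL; 0% = neutral wells and 100% = wells with inactivated enzyme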
E coli growth: E. coli growth inhibition; OD600 absorbance (test concentration not listed); AID 1053175; Escherichia coli growth, OD600, 23 h; stronger effect = lower value; 330,000 tested, 0.21% active;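 active means OD600 absorbance below the run mean of sample wells minus 3.6 SD, in any replicate, cut at about 0.56 in these data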;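 further: stock transfer was 300 nL into about 60 µL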
HNF4A DNA FP: change in binding of human HNF4 alpha to DNA. activity change, % at 10 µM. HNF4a-FITC DNA binding, fluorescence polarization, 1 h. P41235. 360,000 tested, 0.3% active; in the data active means activity change above about 30%, passing the limit was not always enough;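 further: controls were the assay level and a saturating level of protein; the project sought stronger binding though the title names inhibitors; some compounds called inactive have numbers as strong as hits; positive values seem to mean higher polarization but the record does not say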
Target sequence (P41235 whole entry, looked up): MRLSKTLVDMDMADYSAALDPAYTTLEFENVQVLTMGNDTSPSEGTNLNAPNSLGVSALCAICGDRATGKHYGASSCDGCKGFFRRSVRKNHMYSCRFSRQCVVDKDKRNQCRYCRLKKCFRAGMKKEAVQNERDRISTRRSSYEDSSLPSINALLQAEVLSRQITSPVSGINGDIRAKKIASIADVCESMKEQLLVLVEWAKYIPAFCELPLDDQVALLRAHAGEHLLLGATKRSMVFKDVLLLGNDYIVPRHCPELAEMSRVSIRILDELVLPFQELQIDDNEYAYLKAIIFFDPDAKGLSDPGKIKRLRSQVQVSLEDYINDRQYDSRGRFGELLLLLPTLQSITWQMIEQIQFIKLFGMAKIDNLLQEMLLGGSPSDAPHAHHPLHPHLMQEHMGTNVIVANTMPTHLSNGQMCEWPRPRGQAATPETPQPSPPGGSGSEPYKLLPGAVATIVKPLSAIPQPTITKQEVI
FGF22 binding: FGF22 (human) thermal shift binding; Q9HCT0; 340,000 tested, 1.5% active; calls only at 9.99 µM; recombinant FGF22 thermal shift, SYPRO orange fluorescence; percent of sucrose octasulfate shift, DMSO zero;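 active means melting point raised past a set limit in the mean and every replicate; three in four hits are not shown here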
Target sequence (Q9HCT0 whole entry, looked up): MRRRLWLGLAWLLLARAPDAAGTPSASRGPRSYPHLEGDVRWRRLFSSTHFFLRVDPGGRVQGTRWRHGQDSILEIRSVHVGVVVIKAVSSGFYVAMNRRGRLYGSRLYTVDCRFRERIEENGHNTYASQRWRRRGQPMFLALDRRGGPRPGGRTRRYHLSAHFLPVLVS
LANA-H2B inh: blocks KSHV LANA binding to histone H2A/H2B; Q9QR71; cell-free LANA-H2A/H2B peptide, fluorescence polarization; inhibition, % (test concentration not listed); 320,000 tested, 0.6% active; in the data active means inhibition mostly above about 10%, no sharp cut-off; inactive means mostly below about 6.7%;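 further: stock transfer was 7.5 nL into about 10 µL; 0% = median of vehicle wells and 100% = median of positive control wells; one replicate is shown; the record names a cut of 25% in any replicate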
* marks the source's active call; other numbers are inactive results; i = inactive; / = no result given. An excerpt (hit frequency here may not be typical).

Every second line gives: Beta2AR agonist	UCH37 DUB inh	ALR H2O2 inh	E coli growth	HNF4A DNA FP	FGF22 binding	LANA-H2B inh
Clc1ccc(C2=Nn3c(nnc3-c3cccs3)SC2)cc1
→ -18.4	2.8	-10.4	0.702	1.6	/	2.4
CN(C)C(CNc1ccc(S(C)(=O)=O)cc1[N+](=O)[O-])c1ccccc1 (stereo unspecified)
→ 0.9	1.5	-2.1	0.626	0.5	i	-4.6
O=C(COc1cc(=O)n2c(n1)SCCC2)c1ccccc1
→ 1.9	-0.5	-2.3	0.702	3.1	/	1.2
COc1ccc(NC(=O)Cn2nnc(C(=O)NCCc3ccc(OC)c(OC)c3)c2N)c(OC)c1
→ -0.9	3.5	-11.2	0.728	4.9	i	2.3
O=S(=O)(NC1CCCC1)c1cccc(S(=O)(=O)N2CCC(n3nnc4ccccc43)CC2)c1
→ -6.5	2.2	/	0.766	4.0	/	0.8
O=C1OCc2cccc([N+](=O)[O-])c21
→ -10.4	2.1	-8.5	0.692	-2.1	/	-2.3
CC1(C)Cc2c(sc(NC(=O)COc3ccccc3)c2C#N)C(C)(C)N1
→ 6.7	2.4	5.0	0.684	-2.9	i	-1.5
CN(C)S(=O)(=O)c1cccc(C(=O)N2CCc3ccccc32)c1
→ -2.0	3.5	-11.4	0.767	-0.8	/	-6.5
O=C(c1cc(=O)[nH]c2ccccc12)N1CCN(c2cccc(C(F)(F)F)c2)CC1
→ 1.0	1.7	1.4	0.637	-1.3	/	-5.5
COc1ccc(NC(=O)CSc2nc3ccccc3nc2N2CCCC2)cc1
→ -14.9	-0.2	-12.7	0.677	-0.3	i	2.4

Copied from above for reference:
Every second line gives: Beta2AR agonist	UCH37 DUB inh	ALR H2O2 inh	E coli growth	HNF4A DNA FP	FGF22 binding	LANA-H2B inh
Clc1ccc(C2=Nn3c(nnc3-c3cccs3)SC2)cc1
→ -18.4	2.8	-10.4	0.702	1.6	/	2.4
CN(C)C(CNc1ccc(S(C)(=O)=O)cc1[N+](=O)[O-])c1ccccc1 (stereo unspecified)
→ 0.9	1.5	-2.1	0.626	0.5	i	-4.6

Next part.
Every second line gives: Beta2AR agonist	UCH37 DUB inh	ALR H2O2 inh	E coli growth	HNF4A DNA FP	FGF22 binding	LANA-H2B inh
O=C(Nc1nnc(C2CC2)s1)c1cc(S(=O)(=O)N2CCN(c3ccccc3)CC2)ccc1Cl
→ 1.7	1.2	/	0.713	1.2	/	-1.2
COc1ccc(-c2cn3c(C)c(C(=O)N4CCc5ccccc5C4)sc3n2)cc1
→ 1.9	3.0	-22.9	0.786	-4.5	/	-3.8
CC1CN(S(=O)(=O)c2cccc(C(=O)OCC(=O)N3CCCCCC3)c2)CC(C)O1 (stereo unspecified)
→ -5.5	-1.0	-3.2	0.673	3.7	i	1.3
O=C(O)Cc1cccc2ccccc12
→ -8.1	2.7	5.5	0.662	-2.5	i	-2.5
COC(=O)[C@@H](N)Cc1ccc(O)cc1
→ /	-2.8	8.1	/	/	/	1.3
O=C1/C(=C/c2ccccc2)Oc2cc(OC(=O)N3CCOCC3)ccc21
→ -2.4	-4.1	-4.2	0.637	-1.8	/	0.8
Cc1cc(C)nc(SCC(=O)c2ccc3c(c2)OCCO3)n1
→ -5.5	-0.5	5.8	0.693	-5.4	i	-5.1
COc1ccc(S(=O)(=O)N2CCc3ccccc32)cc1C(=O)Nc1ccc(C(N)=O)cc1
→ 10.5	/	0.0	/	-5.1	/	2.2
CCc1ccn2cc(-c3cc(-c4ccccc4)no3)nc2c1
→ 5.0	-2.2	7.4	0.636	-0.1	i	1.7
Cc1ccccc1NC(=O)c1ccc(Cn2cc([N+](=O)[O-])cn2)o1
→ -4.4	1.8	5.5	0.649	-4.8	i	-12.6
CCOC(=O)c1c(S(=O)(=O)NCC(=O)NCc2ccc(C)cc2)c(C)n(C)c1C
→ -5.6	2.1	-2.7	0.675	-1.5	i	0.1
Cc1[nH]c2ccc3ncccc3c2c1C
→ 1.0	-10.1	63.1	0.602	4.1	/	6.5
COc1ccccc1N(CC(=O)Nc1cccnc1)S(=O)(=O)c1ccccc1
→ 1.0	2.6	21.3	0.641	-4.2	i	-8.9
CCOC(=O)C(C(=O)OCC)C1CS(=O)(=O)CC1C(C(=O)OCC)C(=O)OCC (stereo unspecified)
→ 5.5	0.0	-0.2	0.722	1.7	/	1.7
Cn1c(-[n+]2c(-c3ccccc3)cc(-c3ccccc3)cc2-c2ccccc2)nc2cc([N+](=O)[O-])ccc21
→ -3.6	4.8	2.1	0.686	-1.8	/	-2.6
CCOC(=O)C1CCN(C(=O)c2oc3ccc4c(c3c2C)C(O)CC2(CCCCC2)O4)CC1 (stereo unspecified)
→ -0.7	-2.8	-6.2	0.662	-1.2	i	7.0
COc1ccc(S(=O)(=O)Cc2ccc(C(=O)N3CCN(C4CCCCC4)CC3)o2)cc1
→ 4.9	8.3	91.7*	0.734	3.9	/	3.1
COc1cc(OC)cc(C(=O)OCC(=O)N(C)c2ccccc2)c1
→ -5.9	-1.1	-5.3	0.689	-2.1	i	1.6
Clc1ccc(CSc2cc3c(nn2)-c2ccccc2CC3)cc1Cl
→ -1.8	2.5	-6.9	0.809	2.6	/	3.8
CC1=NN(C(=O)Cc2ccccc2)C(O)(c2cccnc2)C1 (stereo unspecified)
→ -8.4	1.1	6.8	0.751	-2.9	/	2.4

Overlap with the part before: five compounds, then new ones.
Every second line gives: Beta2AR agonist	UCH37 DUB inh	ALR H2O2 inh	E coli growth	HNF4A DNA FP	FGF22 binding	LANA-H2B inh
CCOC(=O)C1CCN(C(=O)c2oc3ccc4c(c3c2C)C(O)CC2(CCCCC2)O4)CC1 (stereo unspecified)
→ -0.7	-2.8	-6.2	0.662	-1.2	i	7.0
COc1ccc(S(=O)(=O)Cc2ccc(C(=O)N3CCN(C4CCCCC4)CC3)o2)cc1
→ 4.9	8.3	91.7*	0.734	3.9	/	3.1
COc1cc(OC)cc(C(=O)OCC(=O)N(C)c2ccccc2)c1
→ -5.9	-1.1	-5.3	0.689	-2.1	i	1.6
Clc1ccc(CSc2cc3c(nn2)-c2ccccc2CC3)cc1Cl
→ -1.8	2.5	-6.9	0.809	2.6	/	3.8
CC1=NN(C(=O)Cc2ccccc2)C(O)(c2cccnc2)C1 (stereo unspecified)
→ -8.4	1.1	6.8	0.751	-2.9	/	2.4
COCc1cc(/C=N\NC(=O)Cc2ccc(OC)cc2)ccc1OC
→ 3.7	/	7.5	/	1.2	i	-2.2
CC(Oc1cccc(Cl)c1)C(=O)Nc1ccccc1N1CCCCC1 (stereo unspecified)
→ 13.5	1.3	-7.5	0.627	0.5	i	-6.6
CC(=O)Nc1ccc2sccc2c1
→ -1.8	2.4	-23.3	0.671	-3.5	i	4.5
CCOCCCNC(=O)C(NC(=O)Cc1c[nH]c2ccccc12)c1ccccc1 (stereo unspecified)
→ 2.9	3.0	/	0.666	-0.5	i	3.4
Cc1nn(-c2ccccc2)nc1C(=O)c1c(C)[nH]n(-c2ccccc2)c1=O
→ 20.2	/	3.4	/	5.9	i	1.4
CN(C(=O)c1ccc(NC(=O)Cc2cccc(NC(=O)C3CCN(C(=O)C4CCCCC4)CC3)c2)cc1)C1CCCC1
→ 54.1*	1.5	0.1	0.677	-2.9	i	2.0
Cc1onc(-c2c(Cl)cccc2Cl)c1C(=O)c1ccccc1
→ 1.8	7.4	1.2	0.665	2.0	i	-4.8
Cc1cc(C)c(S(=O)(=O)N2CCCC2=O)cc1N(C)S(C)(=O)=O
→ 0.5	2.5	-5.2	0.667	-1.4	i	1.6
Cc1cccc(OCCC(=O)Nc2ccc(N3CCOCC3)cc2N2CCOCC2)c1
→ -0.3	2.4	/	0.699	3.0	i	-1.3
COc1cc(N=Nc2ccc(C(=O)N(C)C)cc2)c(C)cc1N
→ -7.3	13.4	/	0.72	1.3	i	/
COCCn1nc2cc(C(=O)NCC34CC5CC(CC(C5)C3)C4)ccc2c1OC
→ -2.0	-35.7	1.6	0.675	0.3	i	-3.6
Cc1nn(C(=O)c2cccc([N+](=O)[O-])c2)c(C)c1Cl
→ -8.5	2.0	-10.8	0.663	-2.9	i	5.8
COc1ccc(NS(=O)(=O)c2ccc3c(c2)OCCO3)cc1OC
→ 3.8	0.7	/	0.721	2.3	i	5.3
COc1ccccc1N(C)S(=O)(=O)c1ccc(C(=O)NC2CCCCC2)cc1
→ -3.5	0.6	-2.1	0.705	0.9	i	i
CCc1ccc(NC(=O)/C(C#N)=C/c2cn(CC(=O)O)c3ccccc23)cc1
→ -5.8	1.9	-6.4	0.691	2.5	i	0.9
Cc1ccccc1-n1nc2c(c1NC(=O)c1ccco1)CS(=O)(=O)C2
→ -1.1	0.4	1.5	0.7	0.1	i	-1.9
Cc1cc(C)n2c(SCc3nnc(-c4cccs4)o3)nnc2n1
→ -22.4	-11.7	-5.2	0.672	2.4	/	0.9
CC1CCCN(S(=O)(=O)CCNC(=O)c2ccc3c(c2)OCO3)C1 (stereo unspecified)
→ 1.1	2.7	/	0.69	-2.1	i	0.4
O=C(Nc1cccc(C(=O)N2CCN(c3cccc(Cl)c3)CC2)c1)c1ccccc1
→ -4.1	0.8	-27.4	0.698	2.4	i	2.1
O=C(NCc1ccncc1)C1CCN(S(=O)(=O)c2cc(Cl)ccc2Cl)CC1
→ -4.6	1.5	/	0.657	0.3	i	-1.1

Part of the list above in a different format:
CCc1ccc(NC(=O)/C(C#N)=C/c2cn(CC(=O)O)c3ccccc23)cc1
  Beta2AR agonist: -5.8 | UCH37 DUB inh: 1.9 | ALR H2O2 inh: -6.4 | E coli growth: 0.691 | HNF4A DNA FP: 2.5 | FGF22 binding: i | LANA-H2B inh: 0.9

COc1ccc(NS(=O)(=O)c2ccc3c(c2)OCCO3)cc1OC
  Beta2AR agonist: 3.8 | UCH37 DUB inh: 0.7 | ALR H2O2 inh: / | E coli growth: 0.721 | HNF4A DNA FP: 2.3 | FGF22 binding: i | LANA-H2B inh: 5.3

Next structures.
Every second line gives: Beta2AR agonist	UCH37 DUB inh	ALR H2O2 inh	E coli growth	HNF4A DNA FP	FGF22 binding	LANA-H2B inh
Cc1nc(/C(N)=N/OC(=O)c2c(-c3ccccc3Cl)noc2C)cs1
→ -6.8	/	5.9	/	2.9	i	0.3
O=C(Cc1ccc(Nc2nc(=S)[nH]c3ccccc23)cc1)NC1CCCCC1
→ /	4.0	-2.3	0.731	/	i	-1.1
CC1CCCC(C)N1C(=O)COC(=O)c1ccc(S(=O)(=O)N(C)c2ccccc2)cc1 (stereo unspecified)
→ -1.6	-0.4	0.1	0.642	-1.8	i	-1.4
COc1ccc(-c2nc(N)ncc2Oc2ccccc2Br)c(O)c1
→ 14.1	2.2	-10.1	0.75	2.3	/	-3.3
CCN(Cc1ccccc1)C(c1ccc(Cl)cc1)c1nnnn1C(C)(C)C (stereo unspecified)
→ 14.6	0.5	-2.4	0.702	-1.7	/	-0.7
COc1ccc(Cc2nnc(Nc3ccccc3OC)[nH]c2=O)cc1
→ 0.6	3.4	0.5	0.696	-3.5	i	-5.2
CC1CCCC(C)N1C(=O)CN1CCN(c2nc(-c3ccc(F)cc3)cs2)CC1 (stereo unspecified)
→ 5.6	1.0	9.7	0.694	-0.3	/	0.5
COc1cccc(C(=O)Nn2cnnc2)c1OC
→ 4.4	5.6	-1.6	0.671	3.6	i	3.6
CCCn1c(C(C)Nc2nc(-c3ccc(Cl)c([N+](=O)[O-])c3)cs2)nc2cc(Cl)c(N3CCCCC3)cc21 (stereo unspecified)
→ -5.6	-2.8	-3.4	0.73	-2.9	/	2.5
CCOC(=O)N1CCN(C(=O)CN(C)S(=O)(=O)c2ccc(Cl)cc2)CC1
→ 81.8*	3.1	-0.4	0.691	1.2	i	-0.8
